KCNQ2 inh – KCNQ2 potassium channel inhibitors, primary screen, cell-based, CHO-K1, FluxOR thallium flux, B-score (AID 2156); 310,000 tested, 1.1% active; B-score at 10 µM; O88943; 20 min; active compounds read low; only compounds with negative scores are shown here; some inactives read as strong as hits;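 active means fluorescence ratio B-score at most minus 3 library SDs, with starting brightness B-score within 2 library SDs, cut at about -5.5 in these data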
Target sequence (O88943 whole entry, looked up): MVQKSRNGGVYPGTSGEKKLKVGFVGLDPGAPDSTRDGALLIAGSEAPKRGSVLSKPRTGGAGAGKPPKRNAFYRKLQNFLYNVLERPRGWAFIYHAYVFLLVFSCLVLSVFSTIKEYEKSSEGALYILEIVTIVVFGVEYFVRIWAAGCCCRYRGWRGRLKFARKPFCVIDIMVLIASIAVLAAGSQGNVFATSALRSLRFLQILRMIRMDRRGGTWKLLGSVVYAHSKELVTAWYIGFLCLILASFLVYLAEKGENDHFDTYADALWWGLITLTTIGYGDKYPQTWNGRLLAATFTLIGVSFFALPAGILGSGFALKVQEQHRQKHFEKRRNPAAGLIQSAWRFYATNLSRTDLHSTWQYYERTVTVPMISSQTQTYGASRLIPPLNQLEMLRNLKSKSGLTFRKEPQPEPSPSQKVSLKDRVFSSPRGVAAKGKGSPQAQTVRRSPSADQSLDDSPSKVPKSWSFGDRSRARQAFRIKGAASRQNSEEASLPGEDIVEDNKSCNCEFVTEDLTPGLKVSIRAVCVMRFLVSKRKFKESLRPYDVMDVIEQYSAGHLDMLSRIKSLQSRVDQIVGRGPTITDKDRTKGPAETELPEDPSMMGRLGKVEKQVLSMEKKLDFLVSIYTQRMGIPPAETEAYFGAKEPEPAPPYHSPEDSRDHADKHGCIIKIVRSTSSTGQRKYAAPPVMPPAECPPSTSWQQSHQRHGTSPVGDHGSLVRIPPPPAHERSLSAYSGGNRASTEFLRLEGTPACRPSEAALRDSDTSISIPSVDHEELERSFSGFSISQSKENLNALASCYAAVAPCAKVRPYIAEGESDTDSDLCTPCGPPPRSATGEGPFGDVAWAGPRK
KCNQ2 inh baseline – further read-out of KCNQ2 inh, marked with its call; B-score; measured here: initial fluorescence intensity artifact check;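 brightness before thallium and not channel activity; 0 = typical well and far values either way flag optical interference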
* = called active by the depositor; i = inactive.

Sample of the layout:
SMILES	KCNQ2 inh	KCNQ2 inh baseline
Cc1ccccc1C(=O)Nc1ccccc1N1CCN(C(=O)c2ccccc2)CC1	i	0.47
Brc1ccc(-c2csc(-c3ccncc3)n2)cc1	i	-0.4

The whole of this part, from the first entry:
SMILES	KCNQ2 inh	KCNQ2 inh baseline
Cc1ccccc1C(=O)Nc1ccccc1N1CCN(C(=O)c2ccccc2)CC1	i	0.47
Brc1ccc(-c2csc(-c3ccncc3)n2)cc1	i	-0.4
COc1ccccc1NS(=O)(=O)c1cccc(C(=O)N2CCCCCCC2)c1	i	0.11
Cc1ccccc1NC(=O)c1onc2c1CCCC2	i	-0.28
COc1ccccc1-c1noc(-c2ccccc2C(=O)Nc2cccnc2)n1	i	0.84
CCN(Cc1ccccc1)C(=O)c1ccc2c(=O)n3c(nc2c1)CCC3	i	1.1
COc1cccc(/C=C/C(=O)OCC(=O)Nc2ccccc2Sc2ccccc2)c1	i	0.02
CCOc1cc(/C=N/NC(=O)c2ccc3c(c2)OCCO3)cc(Br)c1O	i	-0.35
COc1ccc(Cc2nc3ccc(C(=O)N4CCCCC4CCO)cc3o2)cc1 (stereo unspecified)	i	-0.72
O=C(c1ccc2c(c1)OCCO2)N1CCN(c2ccc([N+](=O)[O-])cc2)CC1	i	3.5
CCOC(=O)C1(C)NC(c2ccc(O)cc2)C2C(=O)N(c3ccccc3)C(=O)C21 (stereo unspecified)	i	-0.76
CCCNC(=O)c1ccc(N2CC3CC(C2)c2cccc(=O)n2C3)c(NC(=O)Nc2ccc(CC)cc2)c1 (stereo unspecified)	i	-0.47
Cc1ccc(/C=C/C(=O)Nc2cccc(S(=O)(=O)N3CCOCC3)c2)o1	i	-0.47
C=CCOc1nc2c(c(=O)n(Cc3ccc(Cl)c(Cl)c3)c(=O)n2C)n1C	i	-1.3
Cc1ccc(C)c(NC(=S)N2CCN(S(C)(=O)=O)CC2)c1	i	0.59
CCOc1ccc(CNC(=O)CCCn2ccc3cc(S(=O)(=O)N4CCCC4)ccc32)cc1	i	-0.39
O=c1cc(-c2ccccc2)nc(Cc2c(Cl)cccc2Cl)[nH]1	i	-0.55
COC(=O)Nc1nnc(-c2ccncc2)s1	i	1.8
Cc1cc(NCCCn2ccnc2)n2ncc(-c3ccc(Cl)cc3)c2n1	i	7.2
Cc1cccc(NC(=O)CSc2nnc(NC(=O)CN3CCOCC3)s2)c1	i	0.07
CC(=O)c1cccc(NC(=O)Cn2nc(-c3ccc(Cl)cc3)ccc2=O)c1	i	1
COC(=O)c1[nH]c2ccc(Cl)cc2c1NC(=O)CN1CCc2cc(OC)c(OC)cc2C1	i	-1.1
O=S(=O)(N1CCCCC1)N1CCN(c2cc(Cl)ccc2Cl)CC1	i	-0.61
CCOc1ccccc1C(=O)NN1C(=O)CCC1=O	i	4
O=C(Nc1ccc(Cl)cn1)C1CCCN(c2ncnc3c2nc2n3CCCCC2)C1 (stereo unspecified)	i	0.4

Next section; the last 3 above are carried over.
SMILES	KCNQ2 inh	KCNQ2 inh baseline
O=S(=O)(N1CCCCC1)N1CCN(c2cc(Cl)ccc2Cl)CC1	i	-0.61
CCOc1ccccc1C(=O)NN1C(=O)CCC1=O	i	4
O=C(Nc1ccc(Cl)cn1)C1CCCN(c2ncnc3c2nc2n3CCCCC2)C1 (stereo unspecified)	i	0.4
CN(CC(=O)Nc1ccccc1Br)C(=O)C(Cc1ccccc1)NC(=O)c1ccccc1 (stereo unspecified)	i	-2.1
O=C(CCCn1c(SCc2cccc(F)c2)nc2ccccc2c1=O)NCC1CCCO1 (stereo unspecified)	i	-0.17
Cc1ccc(-c2csc(NC(=O)C3=NN(C4CCS(=O)(=O)C4)C(=O)CC3)n2)cc1 (stereo unspecified)	i	-0.09
Cc1ccccc1NC(=S)N(Cc1ccccc1)Cc1cccs1	i	1
Cc1ccc(CNC(=O)Cn2cnc3cc([N+](=O)[O-])ccc3c2=O)cc1	i	-3.2
Cc1noc(C)c1COC(=O)c1ccc(S(=O)(=O)N2CCCCC2)cc1	i	0.27
COc1ccc(NCc2nc3ccccc3n2CCOc2ccccc2)cc1	i	-0.73
COc1ccc(-c2nc3cccc(C)n3c2NCc2ccco2)cc1OC	-6*	-1.6*
N#CC1=C(N)C(C#N)(C#N)[C@H](c2ccsc2)[C@H]2COCC=C12	i	-0.39
Cc1cccc(C)c1OCC(=O)NCC1CCCO1 (stereo unspecified)	i	0.83
COc1cc(/C=N\NC(=O)OC(C)(C)C)ccc1OC(=O)c1ccco1	i	-0.29
COc1cccc(OCC(=O)NNC(=O)c2cccs2)c1	i	1.2
COc1cc(C(=O)Nc2ccc3c(c2)OCCO3)c(-n2cnnn2)cc1OC	i	0.79
CCN(CC)S(=O)(=O)c1ccc(N2CCOCC2)c(NC(=O)C(C)(C)C)c1	i	0.98
c1ccc(C2CCCN(Cc3nc(CC4CC4)no3)CC2)cc1 (stereo unspecified)	i	-0.28
CCN(CC)CCN1C(=O)C(=O)/C(=C(/O)c2c(C)[nH]c(C(=O)OC)c2C)C1c1ccccc1OC (stereo unspecified)	i	0.93
COc1ccc([N+](=O)[O-])cc1NC(=O)CC1SC(=Nc2cccc(C)c2C)N(/N=C(\C)c2ccc(C)cc2)C1=O (stereo unspecified)	i	1.4
Cc1ccc(S(=O)(=O)N(C)C)cc1NC(=O)CSc1nc2ccccc2[nH]1	i	-0.76
O=C1CC2(CCN(C(=O)c3cccc(F)c3)CC2)Oc2ccccc21	i	-0.01
O=C1c2cccnc2C(O)N1Cc1ccco1 (stereo unspecified)	i	-0.97
O=C(Nc1ccc(S(=O)(=O)N2CCN(c3ccccc3)CC2)cc1)c1cccs1	i	0.15
CC(=O)NC(C)C(c1cccs1)N1CCN(c2ccccc2)CC1 (stereo unspecified)	i	0.11
O=C(CCC(=O)Nc1nnc(C2CCCCC2)s1)Nc1ccccc1	i	-0.01
CCOC(=O)CNC(=O)N1CCc2ccc(NC(=O)c3ccccc3Cl)cc2C1	i	-2.1
O=C(NCCCCNC(=O)c1ccccc1F)c1ccccc1F	i	0.33

Seven of the entries above in order of the KCNQ2 inh baseline value, smallest number first:
SMILES	KCNQ2 inh	KCNQ2 inh baseline
Cc1ccc(CNC(=O)Cn2cnc3cc([N+](=O)[O-])ccc3c2=O)cc1	i	-3.2
COC(=O)c1[nH]c2ccc(Cl)cc2c1NC(=O)CN1CCc2cc(OC)c(OC)cc2C1	i	-1.1
CCOC(=O)C1(C)NC(c2ccc(O)cc2)C2C(=O)N(c3ccccc3)C(=O)C21 (stereo unspecified)	i	-0.76
CCCNC(=O)c1ccc(N2CC3CC(C2)c2cccc(=O)n2C3)c(NC(=O)Nc2ccc(CC)cc2)c1 (stereo unspecified)	i	-0.47
CCOc1cc(/C=N/NC(=O)c2ccc3c(c2)OCCO3)cc(Br)c1O	i	-0.35
COc1cccc(/C=C/C(=O)OCC(=O)Nc2ccccc2Sc2ccccc2)c1	i	0.02
Cc1ccc(C)c(NC(=S)N2CCN(S(C)(=O)=O)CC2)c1	i	0.59

Next section
SMILES	KCNQ2 inh	KCNQ2 inh baseline
COC(=O)[C@@H]1C[C@@H]2CC[C@@H](O)C[C@@H]2N1Cc1ccc(Cl)cc1	i	-1.4
COc1ccc(Cl)cc1NC(=O)CN(C)C(=O)c1cn(-c2ccccc2)nc1-c1cccnc1	i	0.29
CCn1ccnc1CN(C)Cc1c(C(=O)N2CCCCCCC2)nc2ccc(Cl)cn12	i	-0.57
CCOn1c(=O)c(-c2ccc(Br)cc2)[n+]([O-])c2ccccc21	i	-0.16
COc1cccc(-c2ccc(NC(=O)C3CCCN(Cc4ccc(CO)o4)C3)cc2)c1 (stereo unspecified)	i	-3.9
C(#CC1CCCCC1)c1ccc2c(c1)COc1c3ccccc3nn1-2	i	0.12
O=C(Nc1ccc(Cl)c(S(=O)(=O)N2CCOCC2)c1)c1ccccc1-c1ccc(C(F)(F)F)cc1	i	-0.08
O=C(N/N=C\c1ccc(Cl)cc1Cl)c1sccc1-n1cccc1	i	1.1
Cc1cccc(N2C(=O)c3cccc4c(N)ccc(c34)C2=O)c1	i	100
COc1ccc(OC)c(CNc2ccc(F)c(Cl)c2)c1	i	0.09
CN(C)c1cccc(/C=C(\C#N)c2ccccc2)c1	-5.7*	-0.17*
Cn1c(SCC(=O)N/N=C/c2ccccn2)nnc1-c1ccccc1	i	0.01
COC(=O)c1c(NC(=O)C2CCCCC2)sc2c1CC(C)(C)NC2(C)C	i	2.7
CCN1C(=O)[C@H]2[C@@H](c3ccc(-c4cccc(Cl)c4)cc3)N[C@@](Cc3ccccc3)(C(=O)OC)[C@H]2C1=O	i	-2.1
O=[N+]([O-])c1ccc(Cl)c2c1C1C=CCC1C(c1ccccn1)N2 (stereo unspecified)	i	0.61
Nc1nnc(SCC(=O)Nc2ccc3c(c2)OCCO3)s1	i	0.57

The list is partial. The share of hits here may be higher or lower than overall.
